Ran importin = RanGTP/importin-beta interaction disruptors – biochemical, CFP-Ran/YFP-importin-beta FRET, RCC1, cell-free, primary screen (AID 434961). inhibition, %. CFP-Ran/YFP-importin-beta FRET, cell-free; active compounds read high. hit rate 0.2% among 7,700;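 active means more than half of the replicate wells above 15% inhibition; inconclusive means exactly half above it; inactive means fewer than half above it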;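 further: 0% = DMSO wells and 100% inhibition = RanGDP control wells on each plate; stock of unstated strength diluted about 400-fold; mean of two wells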
An asterisk follows results filed as active; ? = inconclusive.

SMILES | Ran importin
C[C@@H]1CN([C@@H](C)CO)C(=O)Cc2cc(NC(=O)C3CC3)ccc2O[C@H]1CN(C)C | -6.7
C[C@H](CO)N1C[C@H](C)[C@@H](CN(C)C(=O)Nc2cccc3ccccc23)Oc2ccc(N(C)C)cc2CC1=O | 0.5
Cc1noc(C)c1NC(=O)Nc1cccc2c1O[C@H](CN(C)C(=O)NC1CCCCC1)[C@H](C)CN([C@H](C)CO)C2=O | 1.8
C[C@H]1CN([C@@H](C)CO)C(=O)Cc2cc(NC(=O)Cc3ccccc3)ccc2O[C@@H]1CN(C)Cc1ccncc1 | -2.2
Cc1noc(C)c1S(=O)(=O)N(C)C[C@@H]1Oc2ccc(NS(=O)(=O)c3cn(C)cn3)cc2C(=O)N([C@@H](C)CO)C[C@@H]1C | -2.4
C[C@H](CO)N1C[C@H](C)[C@H](CN(C)C(=O)Nc2ccc(C(F)(F)F)cc2)Oc2ccc(NS(C)(=O)=O)cc2CC1=O | 0.3
C[C@@H]1CN([C@H](C)CO)C(=O)c2cc(NC(=O)Nc3ccc(F)cc3)ccc2O[C@H]1CN(C)Cc1ccncc1 | 0.7
CNC[C@@H]1Oc2ccc(NC(=O)C3CC3)cc2CC(=O)N([C@H](C)CO)C[C@H]1C | ?
Cc1cc(C(=O)Nc2cccc3c2O[C@@H](CN(C)Cc2ccc(C(F)(F)F)cc2)[C@H](C)CN([C@H](C)CO)C3=O)n(C)n1 | 3.4
Cc1noc(C)c1NC(=O)N(C)C[C@H]1Oc2ccc(NC(=O)C3CC3)cc2CC(=O)N([C@@H](C)CO)C[C@@H]1C | -0.6
C[C@@H]1CCCCO[C@@H](CN(C)S(=O)(=O)c2cccs2)[C@@H](C)CN([C@@H](C)CO)C(=O)c2cc(NC(=O)CCCN(C)C)ccc2O1 | -0.8
C[C@H](CO)N1C[C@H](C)[C@H](CN(C)C(=O)Nc2ccccc2)Oc2c(NC(=O)c3ccc(-c4nccs4)cc3)cccc2C1=O | -2.7
C[C@@H]1CN([C@@H](C)CO)C(=O)c2cccc(NC(=O)Nc3ccc(C(F)(F)F)cc3)c2O[C@H]1CN(C)CC1CC1 | 6.9
C[C@@H]1CN([C@H](C)CO)C(=O)c2cc(NC(=O)NC3CCCCC3)ccc2O[C@H]1CN(C)Cc1ccncc1 | -3.5
C[C@@H]1CN([C@H](C)CO)C(=O)c2cccc(NS(=O)(=O)c3ccccc3)c2O[C@H]1CN(C)C(=O)Nc1cccc2ccccc12 | 10
C[C@H](CO)N1C[C@H](C)[C@@H](CN(C)S(C)(=O)=O)OCCCC[C@H](C)Oc2ccc(NS(=O)(=O)c3ccccc3)cc2C1=O | ?
COc1ccc(S(=O)(=O)Nc2ccc3c(c2)CC(=O)N([C@@H](C)CO)C[C@@H](C)[C@@H](CN(C)S(=O)(=O)c2cn(C)cn2)O3)cc1 | ?
Cc1noc(C)c1NC(=O)Nc1ccc2c(c1)C(=O)N([C@@H](C)CO)C[C@@H](C)[C@H](CN(C)C(=O)C1CCCCC1)OCCCC[C@H](C)O2 | 4.9
C[C@H]1CN([C@@H](C)CO)C(=O)c2cccc(NC(=O)c3nc4ccccc4s3)c2O[C@@H]1CN(C)C(=O)NC1CCCCC1 | -1.1
C[C@@H]1CN([C@H](C)CO)C(=O)c2cccc(NC(=O)Nc3ccc(C(F)(F)F)cc3)c2O[C@H]1CN(C)S(=O)(=O)c1ccccc1 | 1.7
C[C@@H]1CN([C@@H](C)CO)C(=O)Cc2cc(NS(C)(=O)=O)ccc2O[C@H]1CN(C)C(=O)Nc1ccccc1 | 5.0
C[C@H](CO)N1C[C@H](C)[C@@H](CN(C)Cc2ccc3c(c2)OCO3)OCCCC[C@H](C)Oc2ccc(NS(=O)(=O)c3ccccc3)cc2C1=O | ?
CCCC(O)C#Cc1cnc2c(c1)C(=O)N([C@H](C)CO)C[C@H](C)[C@H](CN(C)S(=O)(=O)c1ccccc1)O2 (stereo not given in full) | 11
C[C@@H]1CN([C@H](C)CO)C(=O)c2cccc(NC(=O)c3ccc(-c4nccs4)cc3)c2O[C@@H]1CN(C)C(=O)Nc1ccccc1 | -1.6
C[C@H](CO)N1C[C@H](C)[C@@H](CN(C)C(=O)Nc2cccc3ccccc23)Oc2c(cccc2N(C)C)C1=O | -1.0
C[C@H](CO)N1C[C@H](C)[C@@H](CN(C)S(=O)(=O)c2cn(C)cn2)Oc2ccc(NC(=O)CCCN(C)C)cc2C1=O | -2.5
C[C@@H]1CN([C@@H](C)CO)C(=O)c2cc(NC(=O)Cc3ccccc3)ccc2O[C@H]1CN(C)C(=O)Nc1ccc2c(c1)OCO2 | 3.9
C[C@H](CO)N1C[C@H](C)[C@@H](CN(C)C(=O)NC2CCCCC2)Oc2c(NC(=O)NC3CCCCC3)cccc2C1=O | -3.4
C[C@@H]1CN([C@@H](C)CO)C(=O)c2cccc(NS(=O)(=O)c3ccccc3)c2O[C@@H]1CN(C)C(=O)Nc1ccccc1 | 4.5
COc1ccc(CN(C)C[C@@H]2Oc3ccc(NC(=O)Nc4ccc(F)cc4)cc3CC(=O)N([C@H](C)CO)C[C@@H]2C)cc1 | 6.2
C[C@H]1CN([C@@H](C)CO)C(=O)c2cccc(NC(=O)c3ccc(-c4nccs4)cc3)c2O[C@@H]1CN(C)C(=O)Nc1ccccc1 | 0.9
C[C@@H]1CN([C@H](C)CO)C(=O)Cc2cc(NC(=O)NC3CCCCC3)ccc2O[C@@H]1CN(C)C(=O)Nc1ccccc1 | 3.9
Cc1noc(C)c1NC(=O)N(C)C[C@H]1Oc2ccc(NC(=O)C3CC3)cc2C(=O)N([C@H](C)CO)C[C@H]1C | 4.5
CC(C)NC(=O)N(C)C[C@@H]1OCc2cnnn2CCCC(=O)N([C@H](C)CO)C[C@H]1C | 1.0
C[C@H]1CN([C@@H](C)CO)C(=O)CCCn2cc(nn2)CO[C@H]1CN(C)S(=O)(=O)c1ccc(-n2cccn2)cc1 | -0.8
COc1ccc(S(=O)(=O)N(C)C[C@H]2Oc3ccc(NC(=O)CCN4CCOCC4)cc3C(=O)N([C@@H](C)CO)C[C@H]2C)cc1 | 0.8
CC(C)NC(=O)Nc1ccc2c(c1)C(=O)N([C@@H](C)CO)C[C@H](C)[C@H](CN(C)C(=O)Cc1ccccc1)OCCCC[C@@H](C)O2 | 0.7
C[C@H](CO)N1C[C@H](C)[C@H](CN(C)C)Oc2ccc(NC(=O)Nc3ccc(F)cc3)cc2C1=O | -1.7
C[C@@H]1CN([C@@H](C)CO)C(=O)c2cccc(NS(=O)(=O)c3ccccc3)c2O[C@H]1CN(C)C(=O)NC1CCCCC1 | 2.2
CNC[C@H]1Oc2c(NS(=O)(=O)c3cccs3)cccc2C(=O)N([C@H](C)CO)C[C@H]1C | -3.3
C[C@H](CO)N1C[C@H](C)[C@H](CN(C)Cc2ccc(C(=O)O)cc2)OCCCC[C@H](C)Oc2ccc(NC(=O)Nc3ccc(F)cc3)cc2C1=O | -1.8
COc1ccc(CN(C)C[C@H]2Oc3ccc(NC(=O)Nc4ccc(C(F)(F)F)cc4)cc3CC(=O)N([C@H](C)CO)C[C@H]2C)cc1 | -1.3
CCCC(O)C#Cc1cnc2c(c1)C(=O)N([C@H](C)CO)C[C@H](C)[C@H](CN(C)Cc1ccc3c(c1)OCO3)O2 (stereo not given in full) | -1.1
C[C@@H]1CCCCO[C@@H](CN(C)Cc2ccc(C(=O)O)cc2)[C@@H](C)CN([C@@H](C)CO)C(=O)c2cc(NC(=O)c3ccncc3)ccc2O1 | 1.8
Cc1noc(C)c1NC(=O)Nc1cccc2c1O[C@H](CN(C)C)[C@H](C)CN([C@@H](C)CO)C2=O | 5.3

Some of these compounds in order of SMILES length, largest number first.
SMILES | Ran importin
COc1ccc(S(=O)(=O)Nc2ccc3c(c2)CC(=O)N([C@@H](C)CO)C[C@@H](C)[C@@H](CN(C)S(=O)(=O)c2cn(C)cn2)O3)cc1 | ?
CC(C)NC(=O)Nc1ccc2c(c1)C(=O)N([C@@H](C)CO)C[C@H](C)[C@H](CN(C)C(=O)Cc1ccccc1)OCCCC[C@@H](C)O2 | 0.7
Cc1noc(C)c1S(=O)(=O)N(C)C[C@@H]1Oc2ccc(NS(=O)(=O)c3cn(C)cn3)cc2C(=O)N([C@@H](C)CO)C[C@@H]1C | -2.4
C[C@H](CO)N1C[C@H](C)[C@@H](CN(C)S(C)(=O)=O)OCCCC[C@H](C)Oc2ccc(NS(=O)(=O)c3ccccc3)cc2C1=O | ?
C[C@H]1CN([C@@H](C)CO)C(=O)c2cccc(NC(=O)c3ccc(-c4nccs4)cc3)c2O[C@@H]1CN(C)C(=O)Nc1ccccc1 | 0.9
COc1ccc(CN(C)C[C@H]2Oc3ccc(NC(=O)Nc4ccc(C(F)(F)F)cc4)cc3CC(=O)N([C@H](C)CO)C[C@H]2C)cc1 | -1.3
C[C@@H]1CN([C@@H](C)CO)C(=O)c2cc(NC(=O)Cc3ccccc3)ccc2O[C@H]1CN(C)C(=O)Nc1ccc2c(c1)OCO2 | 3.9
C[C@@H]1CN([C@H](C)CO)C(=O)Cc2cc(NC(=O)NC3CCCCC3)ccc2O[C@@H]1CN(C)C(=O)Nc1ccccc1 | 3.9
Cc1noc(C)c1NC(=O)N(C)C[C@H]1Oc2ccc(NC(=O)C3CC3)cc2CC(=O)N([C@@H](C)CO)C[C@@H]1C | -0.6
C[C@H](CO)N1C[C@H](C)[C@@H](CN(C)C(=O)Nc2cccc3ccccc23)Oc2c(cccc2N(C)C)C1=O | -1.0
C[C@@H]1CN([C@@H](C)CO)C(=O)Cc2cc(NC(=O)C3CC3)ccc2O[C@H]1CN(C)C | -6.7

Remaining list, next part:
SMILES | Ran importin
C[C@H]1CN([C@@H](C)CO)C(=O)c2cccc(NS(=O)(=O)c3ccc(F)cc3)c2O[C@H]1CN(C)Cc1ccc(C(F)(F)F)cc1 | -0.7
COc1ccc(S(=O)(=O)N(C)C[C@H]2Oc3c(NC(=O)C4CCOCC4)cccc3C(=O)N([C@H](C)CO)C[C@@H]2C)cc1 | -0.2
C[C@@H]1CN([C@@H](C)CO)C(=O)c2cccc(NS(C)(=O)=O)c2O[C@H]1CN(C)Cc1ccc2c(c1)OCO2 | 1.4
C[C@H](CO)N1C[C@H](C)[C@H](CN(C)S(=O)(=O)c2ccc(F)cc2)OCCCC[C@H](C)Oc2ccc(NC(=O)C3CCCCC3)cc2C1=O | -2.0
COc1ccc(S(=O)(=O)Nc2cccc3c2O[C@@H](CN(C)C)[C@H](C)CN([C@H](C)CO)C3=O)cc1 | -3.5
C[C@H](CO)N1C[C@H](C)[C@@H](CN(C)C(=O)Nc2ccccc2)Oc2c(NC(=O)C3CC3)cccc2C1=O | -1.6
C[C@H](CO)N1C[C@H](C)[C@@H](CN(C)S(=O)(=O)c2ccc(F)cc2)Oc2ccc(NC(=O)C3CC3)cc2C1=O | 0.8
COc1ccc(S(=O)(=O)Nc2cccc3c2O[C@H](CN(C)Cc2ccncc2)[C@@H](C)CN([C@H](C)CO)C3=O)cc1 | -0.5
CNC[C@@H]1Oc2ccc(NC(=O)Cc3cn(C)c4ccccc34)cc2CC(=O)N([C@H](C)CO)C[C@H]1C | 1.2
CNC[C@H]1Oc2ccc(NC(=O)Cc3cn(C)c4ccccc34)cc2CC(=O)N([C@H](C)CO)C[C@@H]1C | 1.6
C[C@@H]1CN([C@@H](C)CO)C(=O)c2cc(NC(=O)NC3CCCCC3)ccc2O[C@@H]1CN(C)C(=O)Nc1cccc2ccccc12 | 5.3
CNC[C@H]1Oc2c(NS(=O)(=O)c3ccc(Cl)cc3)cccc2C(=O)N([C@@H](C)CO)C[C@@H]1C | -3.3
C[C@@H]1CCCCO[C@@H](CN(C)C(=O)CCCN(C)C)[C@@H](C)CN([C@H](C)CO)C(=O)c2cc(N(C)C)ccc2O1 | -6.3
C[C@@H]1CCCCO[C@H](CN(C)Cc2ccccc2)[C@@H](C)CN([C@H](C)CO)C(=O)c2cc(NS(C)(=O)=O)ccc2O1 | -4.6
COc1ccc(CN(C)C[C@@H]2Oc3ccc(NC(=O)Nc4cccc5ccccc45)cc3CC(=O)N([C@@H](C)CO)C[C@@H]2C)cc1 | 2.1
Cc1noc(C)c1NC(=O)Nc1cccc2c1O[C@@H](CN(C)C(=O)NC1CCCCC1)[C@@H](C)CN([C@@H](C)CO)C2=O | -4.3
CC(C)NC(=O)N(C)C[C@@H]1Oc2ccc(NC(=O)CCN3CCOCC3)cc2CC(=O)N([C@@H](C)CO)C[C@H]1C | -2.8
CC(C)NC(=O)N(C)C[C@H]1OCCCC[C@H](C)Oc2ccc(NC(=O)Nc3ccc4c(c3)OCO4)cc2C(=O)N([C@H](C)CO)C[C@@H]1C | ?
C[C@@H]1CN([C@H](C)CO)C(=O)Cc2cc(NC(=O)NC3CCCCC3)ccc2O[C@@H]1CN(C)C(=O)Nc1ccc(C(F)(F)F)cc1 | 1.5
C[C@H]1CCCCO[C@H](CN(C)Cc2ccc(C(=O)O)cc2)[C@@H](C)CN([C@@H](C)CO)C(=O)c2cc(NC(=O)C3CCCCC3)ccc2O1 | ?
Cc1noc(C)c1NC(=O)Nc1ccc2c(c1)CC(=O)N([C@@H](C)CO)C[C@@H](C)[C@@H](CN(C)S(=O)(=O)c1cccs1)O2 | 2.6
Cc1noc(C)c1S(=O)(=O)Nc1cccc2c1O[C@H](CN(C)C(=O)Nc1ccc(F)cc1)[C@H](C)CN([C@H](C)CO)C2=O | ?
C[C@@H]1CCCCO[C@H](CN(C)Cc2ccccc2)[C@@H](C)CN([C@H](C)CO)C(=O)c2cc(NC(=O)CCCN(C)C)ccc2O1 | -7.6
C[C@H](CO)N1C[C@H](C)[C@H](CN(C)Cc2ccc3c(c2)OCO3)Oc2ccc(NS(=O)(=O)c3ccccc3)cc2CC1=O | -2.1
COc1ccc(CN(C)C[C@@H]2Oc3ccc(NC(=O)Cn4cnnn4)cc3CC(=O)N([C@@H](C)CO)C[C@@H]2C)cc1 | -1.9
COc1ccc(CN(C)C[C@@H]2Oc3ccc(NC(=O)Cc4ccccc4)cc3CC(=O)N([C@H](C)CO)C[C@@H]2C)cc1 | -3.8
CNC[C@H]1Oc2ccc(NC(=O)Cc3ccccc3)cc2CC(=O)N([C@@H](C)CO)C[C@H]1C | -1.6
C[C@H]1CN([C@@H](C)CO)C(=O)c2cccc(NC(=O)c3ccncc3)c2O[C@@H]1CN(C)C(=O)Nc1cccc2ccccc12 | -0.4

High-throughput results: PubChem BioAssay, Broad Institute

A portion of the library; count on the stated rates, not on these rows.
